NPYLR7 agonist – agonists of mosquito NPYLR7 receptor, primary screen, cell-based, Aedes aegypti, calcium fluorescence, mosquito biting behavior; Aedes aegypti neuropeptide Y-like receptor 7 (NPYLR7); HEK293T NPYLR7/Galpha15, GCaMP6s calcium fluorescence; activation, % at 10 µM; 0.15% of 270,000 active; in the data active = activation above about 40%;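 also: 0% = vehicle and 100% = reference agonist at the receptor; some compounds past the cut are filed as inactive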
NPYLR7 agonist max-min – also measured in NPYLR7 agonist; calls as there; activation, %; measured here: Max-Min RFU normalised activation; some inactives read as strong as hits;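 span of the calcium signal over five minutes; 0% = vehicle and 100% = native peptide agonist; compound fluorescence can raise it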
The depositor's hits bear a star. Some of the compounds tested (hit frequency here may not be typical).

SMILES	NPYLR7 agonist	NPYLR7 agonist max-min
CCc1ccc(S(=O)(=O)NCc2nnnn2-c2cccc(F)c2)s1	3	1
O=C(Nc1ccc(-c2nc3ccccc3o2)cc1)C1CCC1	-4	9
CCOc1ccc(NC(=O)NCCC(=O)N2CCC(C(=O)NCc3cccc(OC)c3)CC2)cc1	-2	14
O=C(CSc1ccc2ccccc2n1)NNC(=O)c1ccc(Cl)cc1	-1	-4
CCOc1ccccc1NS(=O)(=O)c1c(C)n(C)c(=O)n(C)c1=O	0	-1
O=C(NCC(=O)N1CCN(S(=O)(=O)c2ccc(Br)cc2)CC1)c1cccs1	-1	0
COCCN(Cc1ccccc1OS(=O)(=O)c1ccc(OC)cc1)C(=O)COC	3	-4
COCCN(CC(=O)N(CCc1c[nH]c2ccccc12)Cc1ccccc1OC)S(=O)(=O)c1cccc(C(F)(F)F)c1	16	27
O=C(/C=C/c1cccnc1)N1CCC2(CCCN(Cc3ccccc3F)C2)C1 (stereo not drawn)	13	7
O=C(CSc1nc2ccccc2s1)N/N=C\c1ccc([N+](=O)[O-])o1	-1	-2

A second format for three compounds above.
O=C(Nc1ccc(-c2nc3ccccc3o2)cc1)C1CCC1
  NPYLR7 agonist: -4 | NPYLR7 agonist max-min: 9

CCOc1ccc(NC(=O)NCCC(=O)N2CCC(C(=O)NCc3cccc(OC)c3)CC2)cc1
  NPYLR7 agonist: -2 | NPYLR7 agonist max-min: 14

O=C(CSc1ccc2ccccc2n1)NNC(=O)c1ccc(Cl)cc1
  NPYLR7 agonist: -1 | NPYLR7 agonist max-min: -4

(listing goes on)
SMILES	NPYLR7 agonist	NPYLR7 agonist max-min
Cc1ncsc1C(=O)NC1CC(=O)N(Cc2ccccc2Cl)C1 (stereo not drawn)	21	19
CC(C)c1nc(C(=O)N(C)CC2CCCN(CCc3ccc(Cl)cc3)C2)cs1 (stereo not drawn)	17	5
Cc1csc(NC(=O)CN2CCN(c3ncccn3)CC2)c1C#N	-6	-13
O=C(NCC(F)(F)F)N/N=C1\CCCOc2ccc(Br)cc21	-4	-6
Cc1ccc(N2C(=O)C3C4CC(=O)C(CC4=O)C3C2=O)cc1 (stereo not drawn)	6	11
COc1ccccc1NC(=O)N1CCC(C(=O)N2CCCCC2)CC1	1	-1
Clc1ccc2nc(CSc3ccccn3)cn2c1	-2	0
COc1cc(C(=O)Nc2ccc(S(=O)(=O)Nc3nc(C)cc(C)n3)cc2)cc(OC)c1OC	11	11
CCc1sc(C(=O)Nc2ccccc2C(N)=O)cc1C	2	2
CC(C)c1ccc(C2SCCN2C(=O)c2ccccc2F)cc1 (stereo not drawn)	-3	1
Cc1ccc(OCC(=O)N2CCC3(CC2)N=C(c2ccccc2)NC3=O)cc1	4	2
CCCCCC(=O)N1CCC(=O)N(CCOC)C[C@H]2COc3c(OCC)cccc3[C@H]21	6	17
C=CCNC(=O)NC(=O)COc1ncnc2c(Cl)cc(Cl)cc12	7	2
CCCCN(CC(=O)N1CC(=O)N(c2cccc(C)c2)C1)C(=O)COc1ccc(Cl)cc1	5	7
CCc1ccc(NS(=O)(=O)c2ccsc2C(=O)OC)cc1	1	1
C#CCOc1ccccc1C1CC(=O)Nc2c1cnn2-c1ccccc1 (stereo not drawn)	5	3
Cc1ccc(CNC(=O)c2cc(Cl)c3c(c2)OCCO3)n1C	9	5
COC(=O)/C=C/c1cccc(N(Cc2ccc(-c3ccc(N(C)C)cc3)cc2)C(=O)C2CCCCC2)c1	-13	-18
Cc1ccc(-c2ccc(OCCNC(=O)c3ccco3)nn2)cc1	-6	-5
CN(C)c1cc(NCC2CCC(=O)N2)ncn1 (stereo not drawn)	12	2
COc1cccc(CN(CC(O)COCc2ccccc2)CC2CC(c3ccccc3F)=NO2)c1 (stereo not drawn)	-2	4
O=C(Nc1cccnc1)c1cccnc1Nc1cccc(Cl)c1	-6	-10
CC1=C(C(=O)N2CCCCC2C(=O)Nc2cccc(-c3nnc(C)s3)c2)OCCO1 (stereo not drawn)	4	4
CC(C)c1nn(-c2ccccc2)c2c1C(c1ccc(CO)o1)CC(=O)N2 (stereo not drawn)	0	-4
Cc1cc(CN(CC2CCC2)c2ccccc2)nn1C	-3	350
CCCCN1C(=O)N(CCCC)C2OC(C3OC4C(O3)N(CCCC)C(=O)N4CCCC)OC21 (stereo not drawn)	3	45
CCCCc1[nH]nc2c1C1(CCN(C)CC1)C(C#N)C(=N)O2 (stereo not drawn)	8	5
COC(=O)c1cnc(Nc2nc(C(N)Cc3ccc(OC)cc3)cs2)nc1C(F)(F)F (stereo not drawn)	-3	-9
CCN(CC)CCSc1nc(-c2ccc(C)cc2)nc2c1c(=O)n(C)c(=O)n2C	-3	-5
CC(=O)NC1CCC(NC(=O)C2CCNCC2)CC1 (stereo not drawn)	8	18
CCCNc1ccc(C#N)cc1NS(=O)(=O)c1cn[nH]c1C	-5	-8
COc1ccc(Nc2nc3c(C)cccn3c(=O)c2C=NCc2ccccc2)cc1	-4	-8
Cc1cc(Br)cc2c(N=Nc3ncccn3)c(O)[nH]c12	7	4
COc1cccc(COc2cn(C)c(C(N)=O)cc2=O)c1	2	2
Cc1ccc(N(CC(=O)N2CCNC(=O)C2)Cc2ccco2)cc1	-2	33
CNC(=O)c1cnc(/C=C/c2csc(-c3ccsc3)n2)[nH]c1=O	67*	54*
COC(=O)C(Nc1cc(Cl)ncn1)C(C)C (stereo not drawn)	18	9
CCOc1ccc(S(=O)(=O)n2cccn2)c2ccccc12	-2	42
Cc1ccc(/C=C/C(=O)N(C)C(C)c2cccc(S(N)(=O)=O)c2)o1 (stereo not drawn)	4	3
O=C(CCC1CCN(C(=O)CN2CCOC2=O)CC1)Nc1ccc2c(c1)OCCO2	14	6

5 entries drawn at random from the list so far, as already listed:
SMILES	NPYLR7 agonist	NPYLR7 agonist max-min
COc1cccc(COc2cn(C)c(C(N)=O)cc2=O)c1	2	2
Cc1ccc(/C=C/C(=O)N(C)C(C)c2cccc(S(N)(=O)=O)c2)o1 (stereo not drawn)	4	3
Cc1ccc(N(CC(=O)N2CCNC(=O)C2)Cc2ccco2)cc1	-2	33
CNC(=O)c1cnc(/C=C/c2csc(-c3ccsc3)n2)[nH]c1=O	67*	54*
Cc1cc(Br)cc2c(N=Nc3ncccn3)c(O)[nH]c12	7	4

The list continues.
SMILES	NPYLR7 agonist	NPYLR7 agonist max-min
Clc1ccccc1-c1ncc2ccccn12	2	10
CC1(C(=O)Nc2ccc3c(c2)OCCO3)CCN1C(=O)CC(c1ccccc1)c1ccccc1 (stereo not drawn)	9	6
Cc1noc(C)c1CC(=O)N1CCN(C(=O)c2ccco2)CC1	3	2
CC(C)COc1nc(-c2ccc(C(F)(F)F)cc2)n(-c2ccc(NC(=O)c3cccc([N+](=O)[O-])c3)cc2)n1	2	2
CS(=O)(=O)CCOc1cccc(NC(=O)NCc2ccco2)c1	3	-1
CNC(=O)CN(C(=O)CC(C)(C)C)[C@@H]1C[C@@H]2CO[C@H](C(C)C)C[C@@H]2C1	26	22
COc1ccc(-c2cc(C(=O)NC(c3ccccc3)c3ccccc3)n3nc(C(C)(C)C)cc3n2)cc1	-6	0
COc1ccc(Cl)cc1C(=O)Oc1coc(CSc2nc(C)cc(C)n2)cc1=O	-15	-11
COc1ccc(-c2c(NC(=O)C(C)C)oc3c(C)cccc3c2=O)cc1OC	2	-1
CN(C)c1ccc(NC(=O)c2cccs2)cc1CN(Cc1ccc(F)cc1)S(=O)(=O)c1ccc(F)cc1	36	29
NS(=O)(=O)c1ccc2c3c(cccc13)C(=O)N2	4	3
COc1ccc(C2CC(c3ccc(F)cc3)=Nc3nnnn32)c(OC)c1 (stereo not drawn)	11	5
O=C(NCCCN1CCOCC1)C(C1CCCC1)N1CCN(C(=O)CCc2ccccc2)CC1 (stereo not drawn)	-3	0
O=C(CSc1ccc2nnc(-c3cccnc3)n2n1)Nc1ccc2c(c1)OCCO2	1	-1
COCC(=O)Nc1ccccc1C(=O)N1CC(C)CC(C)C1 (stereo not drawn)	4	3
CCOC(=O)Cn1c(=NC(=O)c2ccn(CC)n2)sc2cc(S(C)(=O)=O)ccc21	-2	-5
CC(=O)Nc1ccc(NC(=O)CCCn2nc(-c3ccc(C)cc3)ccc2=O)cc1	-9	-16
CC(C)(C)CN(c1cccnc1)S(=O)(=O)c1ccc(C(N)=O)cc1	2	36
COCC(=O)N1CCC(Oc2ccccc2C(=O)NCc2ncc(C)[nH]2)CC1	1	-2
CCCCCN(CC(=O)N1CCc2sccc2C1)c1c(N)n(CCCC)c(=O)[nH]c1=O	7	2
CCN(C(=O)CN(C)C(C)c1ccc(S(C)(=O)=O)cc1)c1ccccc1 (stereo not drawn)	-6	-7
Cc1ccc(C2CC(c3ccc(C)cc3C)=NN2C(=O)CN2CCCC2)cc1 (stereo not drawn)	-4	6
CCCCNC(=O)C1(C)CCN1C(=O)CSc1ccccc1 (stereo not drawn)	-4	-6
O=C(c1ccco1)N1C(=O)c2cccc3c(S(=O)(=O)N4CCCCC4)ccc1c23	0	4
CCOC(=O)c1ccc(N2C(=O)CC(NCCc3ccc(F)cc3)C2=O)cc1 (stereo not drawn)	-6	-10
COc1ccc(C(=O)N2CCC(CCC(=O)Nc3cccc(C)c3)CC2)cc1	13	1
Cc1cc(C(=O)N2CCN(CC(OCc3c(F)cccc3F)c3ccc(Cl)cc3)CC2)n(C)n1 (stereo not drawn)	-12	-13
Cc1noc2nc3c(c(C(=O)N4CCOC(C(F)(F)F)C4)c12)CCC3 (stereo not drawn)	4	3
COc1cccc(-c2cc(C(=O)N3CCOCC3)n3nc(C(C)(C)C)cc3n2)c1	12	13
Nc1nnc(SCC(=O)c2ccc(F)c(F)c2)s1	11	13
CC(=O)Nc1nonc1NC(=O)CSc1nncn1C	-1	-4
CCn1c(C2CCCN(S(=O)(=O)N3CCCC3)C2)n[nH]c1=O (stereo not drawn)	7	5
Cc1cc(NC(=O)Cn2cccn2)n(-c2ccccc2C(F)(F)F)n1	14	9
COC(=O)C1=C(C)N=c2s/c(=C/c3ccc(Cl)cc3Cl)c(=O)n2C1c1ccccc1Cl (stereo not drawn)	-2	-8
CN1C[C@H](NC(=O)c2ccc(Oc3ccccc3)cc2)C[C@H]1CO	-1	-1
CC(C)(CCl)C(=O)N1CCc2nc(Cc3ccc(F)cc3)nc(N3CCOCC3)c2C1	31	29
COc1ccc(-c2c[nH]c(=S)n2-c2ccc(F)cc2)cc1	-2	-8
CC(=O)Nc1cc(C(=O)N2CCOc3ccccc3C2)c2c(c1)nc(C)n2Cc1ccccc1	16	7
COC(=O)N1CCN(C(=O)CSCc2cccc(Cl)c2)CC1	-3	-4
O=C1OC(c2ccc(F)cc2)=NC1=Cc1ccc(F)c(F)c1	12	3

Entries above containing an NH in an aromatic ring, in the order listed:
SMILES	NPYLR7 agonist	NPYLR7 agonist max-min
COCCN(CC(=O)N(CCc1c[nH]c2ccccc12)Cc1ccccc1OC)S(=O)(=O)c1cccc(C(F)(F)F)c1	16	27
CCCCc1[nH]nc2c1C1(CCN(C)CC1)C(C#N)C(=N)O2 (stereo not drawn)	8	5
CCCNc1ccc(C#N)cc1NS(=O)(=O)c1cn[nH]c1C	-5	-8
Cc1cc(Br)cc2c(N=Nc3ncccn3)c(O)[nH]c12	7	4
CNC(=O)c1cnc(/C=C/c2csc(-c3ccsc3)n2)[nH]c1=O	67*	54*
COCC(=O)N1CCC(Oc2ccccc2C(=O)NCc2ncc(C)[nH]2)CC1	1	-2
CCCCCN(CC(=O)N1CCc2sccc2C1)c1c(N)n(CCCC)c(=O)[nH]c1=O	7	2
CCn1c(C2CCCN(S(=O)(=O)N3CCCC3)C2)n[nH]c1=O (stereo not drawn)	7	5
COc1ccc(-c2c[nH]c(=S)n2-c2ccc(F)cc2)cc1	-2	-8

Next section.
SMILES	NPYLR7 agonist	NPYLR7 agonist max-min
O=C(CSc1nc2sc3c(c2c(=O)[nH]1)CCC3)NCCO	7	6
CCc1nc2ccc(C(=O)NCCOc3ccc(OC)cc3)cn2c1N(C)Cc1ccc(N(C)C)cc1	9	-9
CCN1C(=Cc2cc(C)[n+](CCOC)c(C)c2)Sc2ccccc21	124*	160*
COc1cc2c(cc1NS(=O)(=O)NCc1ccccc1)n(C)c(=O)n2C	16	13
Cc1ccccc1C1(O)CCN(C(=O)c2coc3c2C(=O)CCC3)C1 (stereo not drawn)	0	-1
CN1[C@@H]2CC[C@H]1CC(OC(=O)[C@H](CO)c1ccccc1)C2 (stereo partly drawn)	-4	-7
CN(Cc1ccsc1)C(=O)c1cccc(NC(=O)C2CC2)c1	-2	-3
CCCSc1cnc(NC(=O)c2nnn(-c3ccccc3OC)c2C)s1	3	0
O=C(CCn1cncn1)Nc1ccc2c(c1)CCC2	8	3
CCN(CC)c1cc(C(C)(C)C)nc(SCc2ccc(C(=O)NCc3ccncc3)o2)n1	-1	2
COc1ccc(S(=O)(=O)N(CC(=O)NCCSCc2ccc(Cl)cc2)c2ccc(C)cc2)cc1OC	6	9
CCc1nc2ccc(C(=O)N3CCCC(C(N)=O)C3)cn2c1N(C)Cc1cc2ccccc2s1 (stereo not drawn)	-3	-6
O=C(c1ccccc1)c1cc(Cl)ccc1NCN1C(=O)c2cccc([N+](=O)[O-])c2C1=O	6	7
Cc1ccc(N2C(=O)CSC2c2ccccc2N)cc1C (stereo not drawn)	-10	-4
Cn1c(=O)c2c(nc3n2CC(c2ccc(F)cc2)=NN3Cc2cccc3ccccc23)n(C)c1=O	-1	6
CCO[C@H]1COC[C@@H]1NC(=O)c1cc(NC(C)=O)ccc1Cl	5	4
Cn1ncc(CN)c1C(F)(F)F	20	12

Compound activity from PubChem.
